Compound activity deposited in PubChem by National Center for Advancing Translational Sciences (NCATS).
gsp antagonist: qHTS for Antagonists of gsp, the Etiologic Mutation Responsible for Fibrous Dysplasia/McCune-Albright Syndrome: qHTS; gsp-mutant cells, cAMP HTRF, 30 min; control for the full effect not named in the record; Potency, µM (highest dose often 76.9 µM), without a hit: at the highest dose activity change, negative = inhibition, usual class: inhibitors; actives 0.4% (n = 340,000); active = falling curve of any shape with a large fitted effect; inconclusive = falling curve, mostly with a smaller effect; inactive = flat or rising curve; cell line not stated here;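 also: intracellular cAMP measured with PDE inhibitor Ro 20-1724 present during compound exposure; potency is read from the fitted curve at half-maximal effect; % is scaled to controls: 0 for no effect and ±100 for the full control effect; nearly all actives have a fitted effect of over 65% in size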
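HTRF cAMP read-out (cAMP-d2 plus anti-cAMP antibody-K in lysis buffer, 30 min RT). Before lysis, cells are exposed to compounds with […] for 30 min at 37C in DPBS containing Ca/Mg, BSA and Tween 20.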
ClpP mod: qHTS Assay for Activators of ClpP. purified B. subtilis ClpP, FRET peptide cleavage, 20 min. AID 651965, 2013. Potency, µM (series often up to 57.5 µM), for inactives: at the top dose activity change, negative = active. actives 1.9% (n = 340,000). ATP-dependent Clp protease proteolytic subunit (Bacillus subtilis (strain 168)), P80244; active = well fitted falling curve with a large enough effect; inconclusive = small, poorly fitted or top-dose-only effect; inactive = no such curve, though single readings can be large or run the other way; also: potency is read from the fitted curve at half-maximal effect; the source files actives as falling curves though it sought activators and does not explain the sign; nearly all actives have a fitted effect of over 65% in size; many hits overshoot -100%
Target sequence (P80244 whole entry, looked up): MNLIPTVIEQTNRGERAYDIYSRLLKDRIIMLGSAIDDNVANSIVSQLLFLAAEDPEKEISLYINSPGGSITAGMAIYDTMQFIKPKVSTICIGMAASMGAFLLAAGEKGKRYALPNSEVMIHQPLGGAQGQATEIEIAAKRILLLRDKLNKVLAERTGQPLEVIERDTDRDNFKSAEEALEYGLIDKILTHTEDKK
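FRET quenching reversal measured ClpP activation: 10 microg/mL B. subtilis ClpP at pH 8 with the FRET-FV decapeptide, read at 430 nm after 320 nm excitation. The 20-min minus 0-min signal was scaled between DMSO/no-enzyme wells and ADEP (5.8 microM final).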
TRPML1 ag: qHTS for Agonists of the Human Mucolipin Transient Receptor Potential 1 (TRPML1). Mucolipin-1 (Homo sapiens), Q9GZU1. TRPML1-expressing cells, Ca2+ dye fluorescence, FDSS; host cell line not named in the record; reference of the full effect not given here. actives 0.12% (n = 410,000). activation, % (test concentration not listed); in the data active = activation above about 50%; inconclusive = about 30% to 50%; inactive = below about 30%; also: 0% is about no effect; the text of the record puts the active cut at 80%
Target sequence (Q9GZU1 whole entry, looked up): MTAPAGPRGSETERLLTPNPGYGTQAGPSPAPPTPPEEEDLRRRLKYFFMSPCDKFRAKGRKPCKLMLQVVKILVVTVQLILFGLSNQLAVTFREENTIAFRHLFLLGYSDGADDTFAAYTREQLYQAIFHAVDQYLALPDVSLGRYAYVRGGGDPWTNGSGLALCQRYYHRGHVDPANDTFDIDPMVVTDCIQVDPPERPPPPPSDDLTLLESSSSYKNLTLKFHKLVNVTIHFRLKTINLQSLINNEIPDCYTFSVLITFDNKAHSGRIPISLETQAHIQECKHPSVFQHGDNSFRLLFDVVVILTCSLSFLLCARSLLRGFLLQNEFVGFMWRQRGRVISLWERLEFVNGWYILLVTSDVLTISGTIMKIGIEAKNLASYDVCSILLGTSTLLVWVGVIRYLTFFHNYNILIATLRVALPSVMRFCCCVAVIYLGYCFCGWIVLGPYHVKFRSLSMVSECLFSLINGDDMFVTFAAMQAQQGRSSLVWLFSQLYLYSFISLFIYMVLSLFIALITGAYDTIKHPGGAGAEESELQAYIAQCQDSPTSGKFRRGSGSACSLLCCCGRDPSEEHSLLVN
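Cells: TRPML1-DL, 1X Tet inducer, ~16 h at 37 degrees C/5% CO2. Dye: ABD Ca8 no-wash + quencher, 45-90 min RT. Read: 10 s baseline, compound add, 110 s agonist phase; 54-4 EC80 (4uM final), 110 s antagonist phase.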
TRPML1 inh: qHTS for Inhibitors of the Human Mucolipin Transient Receptor Potential 1 (TRPML1). Mucolipin-1 (Homo sapiens), Q9GZU1. TRPML1-inducible cells, Ca2+ dye fluorescence, FDSS; stronger effect = lower value; inhibition of EC80 agonist-evoked calcium signal. activity change, negative = inhibition, % (test concentration not listed). actives 0.02% (n = 390,000). AID 624415, 2012; in the data active means activity change below about -50%; inconclusive means about -30% to -50%; inactive means above about -30%;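 also: stimulus is agonist 54-4 at its EC80 concentration; % is scaled to controls: 0 for no effect and ±100 for the full control effect; compound concentration not given in the record; the text of the record puts the active cut at -80%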
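Calcium fluorescence in TRPML1-DL cells induced overnight with Tet: a 110 s read after compound pin addition, then a 110 s antagonist read after challenge with 54-4 at 4 uM final (EC80).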
gsp ag: qHTS for Agonist of gsp, the Etiologic Mutation Responsible for Fibrous Dysplasia/McCune-Albright Syndrome: qHTS. gsp mutant cells, cAMP HTRF, 30 min; control for the full effect not named in the record. Potency, µM (highest dose often 76.9 µM), for inactives: at the top dose activation (cAMP increase), most hits filed as activators. actives 0.13% (n = 340,000). AID 624287, 2012; active = well fitted activation curve with a large enough effect; inconclusive = small, poorly fitted or top-dose-only effect, or another doubt; inactive = no such curve, though single readings can be large or run the other way; cell line not stated here;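 also: phosphodiesterase inhibitor Ro 20-1724 added with compounds to block cAMP breakdown; potency is read from the fitted curve at half-maximal effect; nearly all actives have a fitted effect of over 60% in size; about a fifth of the inactives were tested at one dose only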
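Cells in DMEM/10% FBS with G418 were pretreated with compounds in DMSO plus […] (300 uM stock) for 30 min at 37C. cAMP was measured by HTRF (cAMP-d2 plus anti-cAMP antibody-K) after 30 min at room temperature.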
Menin-MLL FL inh: qHTS Assay for Inhibitors Targeting the Menin-MLL Interaction in MLL Related Leukemias: Competition With Fluorescein Labeled MLL-derived Peptide; Fluorescence polarization, fluorescein-MLL peptide displacement from menin; FP activity change, % at 61.4 µM; 290,000 tested, under 10 active; inconclusive = falling polarisation curve, or a change in total fluorescence; inactive = total fluorescence flat and polarisation flat or rising; no compound was filed as active; the % refers to the polarisation; negative = inhibition;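 also: % of control where 0% means no effect; inhibitors lower the polarisation; unlabelled MLL peptide was the positive control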
Numbers without * were called inactive; ? = inconclusive; . = no result given; & = joins results of further samples; [ ] = dose if it differs, or a comment.

SMILES | gsp antagonist | ClpP mod | TRPML1 ag | TRPML1 inh | gsp ag | Menin-MLL FL inh
COCCCNS(=O)(=O)c1ccc2[nH]c3c(c2c1)CCCCC3 | 0.6% | -14.1% | 0.4 | 1.9 | 22.5% | 10.1
Cc1ccc(C)c(NS(=O)(=O)c2cc(C(=O)NCCSC3CCCCC3)ccc2C)c1 | -13.6% | 0.2% | 1.9 | 4.5 | -36.8% | -4.0
CN1CCN(C(=O)c2ccc3c(c2)N(Cc2ccc(Cl)cc2)C(=O)c2ccccc2S3(=O)=O)CC1 | . | -1.1% | -0.1 | -8.3 | . | .
O=C(C1=C[C@@H](c2ccc(C(F)(F)F)cc2)C[C@@H](OCCCCO)O1)N1CCN(Cc2ccccc2)CC1 | -5.6% | 0.0% | -0.6 | 0.1 | . | 3.0
CC1CCN(c2ccc(NC(=S)NC(=O)c3ccco3)cc2)CC1 | -5.3% | -0.9% | -0.7 | -2.1 | -1.4% | 0.2
COC(=O)c1ccc(C(=O)OC)c(NC(=S)N2CCCCC2C)c1 (stereo not drawn) | ? | ? | -0.8 | -3.0 | -13.6% | -5.0
CCOC(=O)CC(=O)Nc1ccn[nH]1 | 12.1% | 0.8% | -0.4 | 12.8 | 16.3% | 5.3
CC(C)OC(=O)c1ccc(COC(=O)c2cnccn2)cc1 | 8.7% | . | 1.0 | -8.4 | 18.8%[15.4 µM] | -7.8
O=C(OCc1ccccc1)N1CCC2CC1c1cc(NCCc3ccccc3)ccc12 (stereo not drawn) | -11.5% | -15.5% | 2.4 | -6.8 | . | .
COc1cc(NC(=O)CN2C(=O)NC3(CCOc4ccccc43)C2=O)cc(OC)c1 (stereo not drawn) | -15.0% | -0.1% | 1.5 | -4.7 | 14.7% | .
O=C(/C=C/c1ccccc1)NCC(=O)N/N=C/c1cccs1 | -2.7% | 0.7% | -0.1 | 5.7 | -13.6% | .
CCN(Cc1ccc(OC)cc1)c1ccc(-c2nc(-c3ccncc3)no2)cc1[N+](=O)[O-] | . | 0.7% | -0.4 | 74.4 | . | .
CCNc1nc(NC(C)C)nc(N(C#N)Cc2ccccc2)n1 | -7.8% | 2.8% | 0.3 | -9.4 | -18.6% | 2.8
Nc1nc(CSC(=S)N2CCOCC2)nc(Nc2ccc(F)cc2)n1 | 13.7% | 0.7% | 7.0 | 9.2 | -88.1%[inhibitor] | -1.3
O=C1c2ccccc2NC(c2ccco2)N1NS(=O)(=O)c1ccccc1 (stereo not drawn) | -0.3% | . | -0.7 | -5.3 | ? | -0.1
CC(C)(C)Cc1c(-c2ccc(Cl)cc2)nc2c(Cl)cc(C(F)(F)F)cn12 | . | -8.8% | 0.1 | 2.0 | . | .
O=C(O)c1cc(N/N=C/C=C/c2ccccc2[N+](=O)[O-])ccc1Cl | -4.4% | 1.4% | 0.1 | -1.5 | -10.9% | 3.9
Cc1cc(C)n(CC(=O)c2ccc(Cl)cc2)n1 | 0.6% | 0.0% | 0.3 | 16.1 | 6.7%[15.4 µM] | -5.1
CCOc1ccc(CCN2CN(C3CCCCC3)CNC2=S)cc1OCC | -16.3% | 0.7% | -0.1 | -11.4 | -3.5%[15.4 µM] | 2.5
Cc1ccc(NC(=O)Cn2nc(C)cc2C)cc1 | 5.3% | -0.4% | -0.1 | -15.6 | ? | -5.3
CCOc1ccc(N(CC(=O)N2CCN(Cc3ccccc3)CC2)S(C)(=O)=O)cc1 | 1.7% | -0.3% | -0.4 | 18.8 | -3.6% | -5.9
CCCCOc1ccc(C(=O)OCC(=O)N2CCOCC2)cc1 | 5.2% | . | 1.3 | -8.9 | -18.4%[15.4 µM] | 8.0
COc1cc(CN2CCc3ccc(NC(=O)CCc4ccccc4OC)cc3C2)ccc1O | -11.2% | 0.5% | -0.3 | -1.2 | ? | 0.1
CCOC(=O)N1CCC(NC(=O)C2CCN(c3nc(-c4ccc(OC)cc4)no3)CC2)CC1 | 11.0% | 1.0% | -0.4 | 1.4 | 15.1% | -2.0
CCOC(=O)c1nc(N)c(=O)n(-c2ccc(C)cc2)n1 | 14.0% | -1.8% | -0.6 | -10.1 | 12.5% | 0.8
Cc1cccc(NC(=O)C2CCCN(C(=O)NC3CCCCC3)C2)c1C (stereo not drawn) | 12.9% | -0.1% | 0.0 | -14.4 | -23.0% | 0.5
Cc1nc2sc(C(c3ccccc3)N3CCC(O)CC3)c(O)n2n1 (stereo not drawn) | 10.9% | -4.2% | -0.7 | 1.3 | -0.6% | -0.9
CCOc1ccc(Nc2nc3c(S(=O)(=O)c4ccc(CC)cc4)nnn3c3ccc(Cl)cc23)cc1 | . | -5.1% | -0.1 | 1.5 | . | .
Cc1nc(Nc2nc3ccccc3o2)nc2c1CCC2 | 16.6% | -3.8% | 0.0 | 0.1 | 0.4% | 0.2
O=C(O)c1ccc(Oc2ccc(C(F)(F)F)cn2)cc1 | 7.8% | . | -0.7 | 36.8 | 10.5%[15.4 µM] | -1.1
NC(Cc1ccccc1)C(O)(c1ccccc1)c1ccccc1 (stereo not drawn) | -11.1% | -0.8% | 1.9 | 6.4 | -16.1% | 0.0
CN(Cc1ccccc1)C(=O)C1CCCN(c2ncnc3c2nc2n3CCCCC2)C1 (stereo not drawn) | 9.7% | 1.6% | -0.5 | -8.3 | 0.1% | 7.8
CCN(CC)S(=O)(=O)c1ccc(C(C)NCC(=O)Nc2ccccc2C(=O)NC2CC2)cc1 (stereo not drawn) | -16.9% | -22.1% | 0.0 | 48.3 | -48.8%[inhibitor] | .
O=C(c1ccc(F)cc1)C1CCN(C(=O)NC2CCCCC2)CC1 | -2.3% | -2.0% | 0.0 | -3.5 | 5.1% | -1.9
COCCNC(=O)CCCn1c(=O)c2cc(OC)c(OC)cc2n(CC(=O)Nc2ccccc2OC)c1=O | -9.1% | 4.0% | 1.0 | 6.5 | -11.1% | 0.4
Cc1ccc(C)c(NC(=O)c2ccc3c(c2)CCN3S(=O)(=O)c2ccccc2)c1 | . | -4.1% | 0.5 | 62.0 | . | .
Cc1nn(C)c(C)c1Nc1ccc(N2C(=O)C3C4C=CC(C4)C3C2=O)cc1[N+](=O)[O-] (stereo not drawn) | 6.9% | . | -0.4 | -18.9 | -14.2% | -0.3
C=CCOC(=O)C1=C(C)NC(SCC(=O)N(CC)CC)=C(C#N)C1c1ccco1 (stereo not drawn) | 14.3%&-16.0% | 1.7%&59.3% | 0.0&2.5 | -29.9&-1.0 | -99.5%&0.0%[inhibitor] | 3.7
O=C(COC(=O)CNC(=O)c1ccc(Cl)cc1)Nc1ncc(C(F)(F)F)cc1Cl | -25.7% | -14.1% | -0.2 | -4.6 | 17.6%[15.4 µM] | 2.0
COc1ccc([C@H]2CC(=O)C=C(/C=C/c3ccc(Cl)cc3)C2)cc1 | -11.5% | 0.0% | 0.3 | 25.6 | -12.3% | .
Cc1ccc(CN2CCN(Cc3ccc4cccc(F)c4n3)CC2CCO)cc1 (stereo not drawn) | -33.8% | -1.7% | 0.4 | -15.5 | -11.9% | -1.1
CNC(=S)N1CCn2cccc2C1c1ccc(F)cc1 (stereo not drawn) | 3.4% | 0.8% | -0.3 | -5.5 | -3.5%[15.4 µM] | ?
COC(=O)C1=C(CSc2nnnn2C)NC(=O)NC1c1cc(C)ccc1C (stereo not drawn) | 0.7% | -0.5% | -0.5 | -1.5 | -44.4%[inhibitor] | 1.1
Cc1noc2ncnc(Sc3ccc(Cl)cc3)c12 | -1.1% | -1.5% | 0.5 | 5.0 | -32.7%[inhibitor] | 2.5
Cc1cc2c3nonc3ccc2n1-c1ccccc1 | -12.8% | ? | 6.5 | 75.2 | 25.1% | 1.6
Cc1ccc(CCNC(=O)c2ccc(CS(=O)(=O)Cc3ccc(F)cc3)o2)cc1 | 6.0% | 1.7% | -1.1 | -7.2 | -8.9% | .
CCOc1ccc(C2N(c3ccc(Cl)cc3)C(=O)C3CCCN32)cc1OC (stereo not drawn) | -1.0% | -0.5% | 0.3 | 39.4 | ? | 21.2
Cc1cccc(N2C(=S)NC3c4ccccc4OC2(C)C3C(=O)N(C)C)c1 (stereo not drawn) | 17.1% | -0.9% | -0.7 | 6.4 | -3.6%[15.4 µM] | -0.8
CCOC(=O)N1CCN(C(=O)CSCc2ccccc2Cl)CC1 | -5.7% | . | 2.7 | -7.0 | 15.0%[15.4 µM] | 0.1
COc1ccc(S(=O)(=O)N2CCN(C(=O)C3CC(=O)N(c4ccccc4F)C3)CC2)cc1OC (stereo not drawn) | -3.1% | 0.2% | -0.6 | 11.0 | -13.2% | .
CCN(CC)S(=O)(=O)c1ccc(C)c(NC(=O)COC(=O)CNC(=O)c2ccc(C(C)(C)C)cc2)c1 | ? | 0.9% | -0.5 | -2.5 | 21.7%[15.4 µM] | 6.4
CC(C)(C)c1ccc(-n2ncc3c2CCCC3NC(=O)CCN2CCCO2)cc1 (stereo not drawn) | 3.3% | -0.6% | -0.3 | -8.0 | -6.3% | -9.3
CCn1nc(C(=O)NC2=NCCS2)c2ccccc2c1=O | -0.5% | -2.1% | -0.3 | 12.9 | -49.6%[inhibitor] | 3.0
Cc1ccc(NC(=O)C23CCC(C)(C(=O)[C@H]2Br)C3(C)C)cc1 (stereo partly drawn) | -5.8% | 1.1% | 1.1 | ? | 0.7% | 7.8
O=c1c(Cl)c(N2CCN(S(=O)(=O)c3ccccc3)CC2)cnn1-c1ccccc1 | -1.7% | -6.7% | -0.5 | -1.2 | ? | 0.2
Cc1cc(Nc2ccc(F)cc2)nc(-n2nc(C)cc2C)n1 | . | -2.3% | -1.0 | -15.5 | . | .
Cc1ccc(CC(=O)NCCC(=O)O)cc1 | -4.2% | 0.4% | . | . | 2.1% | 4.7
Cc1cc(C)c(S(=O)(=O)N(C)CC(=O)NCc2cccnc2)c(C)c1 | -6.7% | . | -0.1 | -2.4 | -2.8%[15.4 µM] | -0.4
COC(=O)c1ccc(S(=O)(=O)NCc2ccco2)n1C | 19.1% | . | 0.1 | -11.0 | 2.2%[15.4 µM] | 4.5
COc1cc(C(=O)Nc2c(C)cc(C)cc2C)c(Br)c(OC)c1OC | -12.6% | . | 0.7 | 5.9 | -0.5%[15.4 µM] | 0.8
Cc1ccc2[nH]c(CN3CCN(C)C(CCO)C3)c(C)c2c1 (stereo not drawn) | -0.6% | -11.8% | -0.6 | -12.3 | -16.4% | -2.7
